miR-21 reporter – raises the signal of a miR-21 reporter. HeLa miR-21 FLuc reporter, luciferase, 48 h. Potency, µM (top dose mostly 38.3 µM), inactives show at the highest dose reporter change, positive = more light. 340,000 tested, under 10 active. AID 2288; active = well fitted rising curve with a large enough effect; inconclusive = small, poorly fitted or top-dose-only effect; inactive = no such curve, though single readings can be large or run the other way;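 note: % of control where 0% means no effect; miR-21 action dims this reporter so a rising signal means less miR-21 action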
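HeLa cells stably expressing CMV-driven firefly luciferase with a downstream miR-21 binding sequence, endogenously expressing miR-21, were treated with titrations (up to about 40uM final) for 48 hours at 37 degree Celsius. Luciferase luminescence was read after lysis.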
Rango-impB inh – inhibitors of Rango-importin beta complex formation; Q14974; Rango CFP/YFP FRET sensor + importin beta, 45 min; Potency, µM (top dose mostly 92.2 µM), inactives show at the highest dose inhibition of complex formation; hit rate 0.031% among 340,000; AID 540263; active = rising FRET ratio curve, often small or poorly fitted; inconclusive = mostly compound fluorescence or quenching in the first reads; inactive = flat curves in all reads;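 note: potency is the fitted concentration of half-maximal effect; 0% = DMSO wells and 100% = buffer wells lacking importin beta; nearly all actives have a fitted effect of over 15% in size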
Target sequence (Q14974 whole entry, looked up): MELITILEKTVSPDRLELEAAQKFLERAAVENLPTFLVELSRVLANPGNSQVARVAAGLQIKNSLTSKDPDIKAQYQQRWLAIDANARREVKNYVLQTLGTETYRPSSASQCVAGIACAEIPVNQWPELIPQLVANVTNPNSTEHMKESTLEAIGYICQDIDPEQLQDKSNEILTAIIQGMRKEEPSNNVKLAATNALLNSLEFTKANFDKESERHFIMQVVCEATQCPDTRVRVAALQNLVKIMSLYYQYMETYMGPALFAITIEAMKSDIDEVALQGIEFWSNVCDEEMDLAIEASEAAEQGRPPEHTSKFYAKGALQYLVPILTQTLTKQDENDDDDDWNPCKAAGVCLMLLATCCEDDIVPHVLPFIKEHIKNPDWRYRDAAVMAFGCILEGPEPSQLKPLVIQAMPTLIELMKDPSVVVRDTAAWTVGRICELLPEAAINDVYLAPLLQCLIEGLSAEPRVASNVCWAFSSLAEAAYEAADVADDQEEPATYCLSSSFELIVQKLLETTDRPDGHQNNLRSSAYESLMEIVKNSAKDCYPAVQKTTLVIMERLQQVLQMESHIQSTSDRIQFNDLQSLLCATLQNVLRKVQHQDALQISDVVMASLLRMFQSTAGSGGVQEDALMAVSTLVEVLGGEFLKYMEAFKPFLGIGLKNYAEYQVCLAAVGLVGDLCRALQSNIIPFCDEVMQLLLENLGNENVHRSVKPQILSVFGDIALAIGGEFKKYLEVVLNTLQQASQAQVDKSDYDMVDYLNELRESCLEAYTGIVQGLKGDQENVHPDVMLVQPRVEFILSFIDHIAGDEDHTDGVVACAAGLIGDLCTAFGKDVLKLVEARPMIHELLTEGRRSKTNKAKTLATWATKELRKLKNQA
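FRET biosensor Rango (snurportin 1 IBB between N-terminal EYFP and C-terminal Cerulean), 50 nM in PBS/1 mM DTT/0.02% Tween-20/0.1% BSA, preincubated 5 min RT with compound; 0.125 microM importin beta added, 45 min RT, CFP/YFP FRET ratio read.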
Rango release inh – prevents RanGTP from dissociating the Rango-importin beta complex; hit rate 0.071% among 340,000; Biochemical FRET Rango-importin beta, RanGTP-induced dissociation; AID 540253; Potency, µM (highest dose often 46.1 µM), without a hit: at the top dose activity change, negative = inhibition; active means falling FRET ratio curve, often poorly fitted, with flat reads before Ran was added; inconclusive means other falling curves, or compound fluorescence or quenching; inactive means flat or rising ratio curve;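 note: potency is the fitted concentration of half-maximal effect; % of control where 0% means no effect; nearly all actives have a fitted effect of over 45% in size; -100% = wells without RanGTP and RCC1; the record marks most hits as doubtful in a second field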
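Compounds sat 5 min at room temperature with 0.1 uM Rango biosensor plus 0.25 uM importin beta, then FRET pre-read. RanGTP-RCC1 (0.6 uM Ran, 2mM GTP, 0.2 uM RCC1) added for 45 min, and the CFP/YFP post-read measured blocked complex dissociation.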
GLA inh pH 4.5 – inhibitors of human alpha-galactosidase A at pH 4.5. purified enzyme, 4-MU-alpha-Gal fluorescence, pH 4.5. activity change, negative = inhibition, % at 105 µM. 230,000 tested, under 10 active; inconclusive = small, poorly fitted or top-dose-only inhibition, or a rising curve; inactive = flat fitted curve, though single readings scatter; no compound was filed as active;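 note: 0% = full activity with enzyme and -100% = basal without enzyme; dose as in the result columns while the protocol names 77 µM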
Starred values were filed as active, the others as inactive; ? = inconclusive; . = not tested or not shown; & = joins results of further samples.

Start of the listing, in advance, four compounds:
SMILES	miR-21 reporter	Rango-impB inh	Rango release inh	GLA inh pH 4.5
CC(C)COCC1CC2(CC(C)(c3csc(N)n3)OC2=O)C(=O)O1 (configuration not stated)	-9%	0.2%	-16%	-10
CS(=O)(=O)N(Cc1ccc(C(=O)NCc2ccco2)cc1)c1ccccc1	-4%	-1.2%	20%	4
COc1cc(/C=N/NC(=O)CSc2n[nH]c(=O)[nH]c2=O)cc(OC)c1O	0%	-1.2%	-8%	-4
O=C1C=C(c2ccc(C(=O)O)cc2)C[C@@H](c2ccc(F)cc2)C1	.	-0.6%	-18%	.

All compounds of this part, repeating the preview:
SMILES	miR-21 reporter	Rango-impB inh	Rango release inh	GLA inh pH 4.5
CC(C)COCC1CC2(CC(C)(c3csc(N)n3)OC2=O)C(=O)O1 (configuration not stated)	-9%	0.2%	-16%	-10
CS(=O)(=O)N(Cc1ccc(C(=O)NCc2ccco2)cc1)c1ccccc1	-4%	-1.2%	20%	4
COc1cc(/C=N/NC(=O)CSc2n[nH]c(=O)[nH]c2=O)cc(OC)c1O	0%	-1.2%	-8%	-4
O=C1C=C(c2ccc(C(=O)O)cc2)C[C@@H](c2ccc(F)cc2)C1	.	-0.6%	-18%	.
COc1ccccc1CCC(=O)Nc1ccc(S(=O)(=O)Nc2nccs2)cc1	.	-2.7%	6%	.
CC(C)NC(=O)COc1ccc(OCc2ccccc2)cc1	-10%	-1.4%	10%	3
Cc1ccc(S(=O)(=O)c2nc(NCCCn3ccnc3)sc2Cl)cc1	1%	0.1%	3%	9
COc1ccc(C(=O)N2CCN(c3cccc(Cl)c3)CC2)cc1S(=O)(=O)NC1CC1	.	2.1%	-5%	.
CNc1nc2cc([N+](=O)[O-])c([N+](=O)[O-])cc2nc1NC	?	0.2%	-2%	2
COc1cc(NC(=O)c2ccc3c(c2)S(=O)(=O)N=C2CCCCCN23)cc(OC)c1	.	1.1%	17%	.
CCN1c2ccccc2-c2nc3ccccc3n2C1c1ccco1 (configuration not stated)	0%	1.1%	-15%	?
Cc1cccc(NC(=O)COC(=O)CN2CCCCCC2=O)c1C	.	-0.6%	1%	.
C=C(Br)Cn1c(CCC)nc2ccccc21	1%	-3.1%	3%	5
COc1cc(C(=O)OCCCN=C2NS(=O)(=O)c3ccccc32)cc(OC)c1OC	-1%	-1.5%	1%	-3
O=C(CCN1C(=O)c2ccccc2C1=O)C1=NN[C@@H]2C(=O)N(c3ccc4c(c3)OCCO4)C(=O)[C@H]12	7%	3.5%	4%	-9
COc1cccc(-c2csc3nc[nH]c(=O)c23)c1	-12%	1.3%	1%	-3
Cc1cc(C)c(NC(=S)NCCCSC2CCCCC2)c(C)c1	18%	-2.6%	-2%	3
Cc1ccc(C)c(NC(=O)COC(=O)c2ccc(S(=O)(=O)N3CCCCC3)cc2)c1	.	-3.7%	0%	.
CN(Cc1ccc(F)cc1)C(=O)c1cc(COc2ccc(-n3cncn3)cc2)on1	17%	3.0%	2%	.
COc1ccc(Cl)cc1NC(=O)c1ccccc1C	-9%	1.2%	-13%	5
COCc1ccc(-c2c(-c3ccc(OC)cc3)oc(=O)c3cc(OC)c(OC)cc23)cc1	.	0.0%	-4%	.
CN(c1ccc(C(=O)N2CCN(c3ccc(F)cc3)CC2)cc1)S(C)(=O)=O	3%	1.6%	37%	2
CCOP(=O)(OCC)c1nc(/C=C/c2ccccc2)oc1NCc1ccc(OC)cc1	-6%	?	?	?
COc1cccc(/C=N/Nc2nc(Nc3ccccc3)nc(-n3nc(C)cc3C)n2)c1O	28%	?	-27%	-5
CN(C)C(CNc1ccc(C(F)(F)F)cn1)c1ccccc1 (configuration not stated)	-14%	0.5%	-8%	.
COc1cc(NC(=O)C2CC(=O)N(Cc3ccco3)C2)cc(OC)c1 (configuration not stated)	.	-1.2%	-9%	.
CCCn1c(=N)n(CC(=O)c2ccc(Cl)cc2)c2ccccc21	2%	-0.7%	17%	.
COc1cccc(-c2sc3ccc(OC)cc3c2C#CC2(O)CCCCC2)c1	.	0.5%	-8%	.
O=C(Cc1ccccc1)NC1CCSc2ccccc21 (configuration not stated)	-11%	1.1%	-20%	.
CCCCOc1ccc(C2/C(=C(\O)c3ccc4c(c3)OCCO4)C(=O)C(=O)N2CCCN2CCOCC2)cc1 (configuration not stated)	-12%	?	22%	.
CC(c1ccncn1)N(C)Cc1nc(Cc2ccccc2F)no1 (configuration not stated)	1%	-4.0%	3%	-7
O=c1c2ccccc2nnn1COc1cccc(Cl)c1	-65%	3.9%	-7%	3
COc1ccc(/C=C(/NC(=O)c2ccccc2)C(=O)N2CCOCC2)cc1OC	-2%	-1.6%	-2%	.
COc1cc(OC)c(NC(=O)CCc2nc(-c3ccc(C)cc3)no2)cc1Cl	-21%	8.2%	-5%	-24
COc1ccc(C2(C(=O)N3CCOCC3)CCCC2)cc1	-1%	1.4%	-14%	4
COC(=O)c1c(NC(NC(=O)C(C)C)C(Cl)(Cl)Cl)sc2c1CCC2 (configuration not stated)	14%	-0.9%	-7%	-11
Cc1cc(C(=O)Nc2nncs2)oc1C	-36%	1.5%	-23%	.
Cc1[nH]n(C(N)=S)c(=O)c1N=Nc1ccc(S(=O)(=O)N2CCCCCC2)cc1	-12%	-0.1%	33%	-7
O=C1C(Cl)=C(N2CCCCCC2)C(=O)N1c1ccccc1Cl	5%	?	?	.
CNc1ncc(C(=O)c2ccc(Cl)cc2)s1	-48%	-0.2%	16%	-3
O=C(CSc1cccc[n+]1[O-])c1ccc(-c2ccccc2)cc1	-31%	0.3%	30%	9
O=C(NNc1ccccc1[N+](=O)[O-])NC1CCCCC1	-7%	3.6%	0%	-4
O=C(CN(Cc1ccccc1)S(=O)(=O)c1ccc(Cl)cc1)NCC1CCCO1 (configuration not stated)	0%	-0.4%	1%	.
COc1ccc(CNc2nn[nH]n2)cc1OC	-1%	4.7%	-1%	0
Clc1cccc(CN2CCN(Cc3nc(CCc4ccccc4)no3)CC2)c1	-1%	-1.4%	-11%	6
Cc1ccc(-c2n[nH]c(=S)n2Cc2ccccc2)cc1	-3%	0.1%	-6%	-3
CN(C(=O)c1cc(S(=O)(=O)N2CCc3ccccc32)cn1C)C1CCCCC1	6%	1.9%	-3%	.
COc1ccccc1NC(=O)c1c(Nc2ccccc2F)sc(C(=O)Nc2cccc(Cl)c2)c1N	25%	-3.2%	0%	-23
COc1ccc(/C=C/C(=O)NC(=S)N2CCN(c3ccccn3)CC2)cc1OC	-5%	-1.3%	1%	-3
C[C@@H]1CN([C@H](C)CO)C(=O)Cc2cc(NC(=O)Nc3ccccc3)ccc2O[C@@H]1CN(C)Cc1ccc2c(c1)OCO2	.	-2.2%	25%	.

4 entries out of the list, sorted by length of the SMILES, high to low:
SMILES	miR-21 reporter	Rango-impB inh	Rango release inh	GLA inh pH 4.5
CN(C(=O)c1cc(S(=O)(=O)N2CCc3ccccc32)cn1C)C1CCCCC1	6%	1.9%	-3%	.
COc1ccc(/C=C/C(=O)NC(=S)N2CCN(c3ccccn3)CC2)cc1OC	-5%	-1.3%	1%	-3
Clc1cccc(CN2CCN(Cc3nc(CCc4ccccc4)no3)CC2)c1	-1%	-1.4%	-11%	6
O=C(CSc1cccc[n+]1[O-])c1ccc(-c2ccccc2)cc1	-31%	0.3%	30%	9

(list continues)
SMILES	miR-21 reporter	Rango-impB inh	Rango release inh	GLA inh pH 4.5
Cc1c(N=C2C=CC(=O)c3ccccc32)c(=O)n(-c2ccccc2)n1C	-5%	-3.2%	-3%	-6
O=C1NCCN1CCNS(=O)(=O)c1ccc(F)cc1	-9%	-2.3%	1%	-8
CNC(=S)N1CCN(c2ccccn2)CC1	-13%	-0.3%	4%	-6
COC(=O)CN(c1ccc(OC)cc1)S(=O)(=O)c1ccc(OC)c(OC)c1	-9%	0.6%	8%	-1
C=CCNC(=S)NNC(=O)c1cc(Cl)ccc1OC	-1%	0.0%	4%	-7
CC(C)(C)NC(=O)C(c1ccncc1)N(C(=O)c1csnn1)c1cccc2ccccc12 (configuration not stated)	0%	1.5%	6%	5
N#CC1=C(N)OC2=C(C(=O)CCC2)C1Cc1ccccc1 (configuration not stated)	.	3.0%	1%	.
COc1ccc(C(=O)NC23CC4CC(CC(C4)C2)C3)cc1OC	-7%	-5.3%	3%	.
Cc1oc(-c2ccccc2)nc1C(=O)Nc1nccs1	-21%	?	0%	-9
COc1ccc(N(C(=O)c2snc(C(N)=O)c2N)C(CC(C)C)C(=O)NCC2CCCO2)cc1 (configuration not stated)	-1%	2.4%	-4%	.
CCOC(=O)C1(Cc2cccc(OC)c2)CCN(Cc2cnc(C)s2)CC1	8%	-0.1%	3%	-2
O=C1C2C3C=CC(C3=C(c3ccccc3)c3ccccc3)C2C(=O)N1Cc1ccccc1 (configuration not stated)	1%	-2.7%	16%	-7
CN(C)C(=O)Oc1ccc[n+](C)c1	-2%	4.1%	-3%	4&-4&8
Cc1cc(C)n(C2CC(=O)N(c3cc(Cl)cc(Cl)c3)C2=O)n1 (configuration not stated)	-1%	2.7%	-4%	-6
COc1ccc(Cl)cc1N(CC(=O)NCCSc1ccccn1)S(=O)(=O)c1ccccc1	6%	2.1%	11%	.
COC(=O)C1=C(C)NC(=S)NC1c1ccco1 (configuration not stated)	5%	-0.8%	-9%	-3
CCn1c(=O)n(CC(=O)N(C)Cc2ccccc2)c(=O)c2ccccc21	-2%	-1.3%	1%	-6
O=C(C[C@H]1C/C=C/CC[C@@H](Cc2ccc(F)cc2)C(=O)OC[C@H](c2ccccc2)NC1=O)NCCO	.	-0.1%	-8%	.
Fc1ccccc1/C=C/c1ccc2ccccc2n1	-12%	0.4%	-15%	-20
COc1c(C)cc(S(=O)(=O)NC2CC(C)(C)NC(C)(C)C2)c(C)c1C	-10%	-1.6%	-4%	-3
COCCOc1cc(N)c(Cl)cc1Cl	-17%	4.9%	9%	4
Cc1cccc(C(=O)NCc2nnc(SC(C)C(=O)Nc3nnc(C)s3)n2C)c1 (configuration not stated)	.	-0.1%	-6%	.
COc1ccc(/C=N/NC(=O)c2ccc(Cn3cc([N+](=O)[O-])cn3)o2)cc1O	-14%	1.2%	-13%	5
O=C(NCc1ccc2c(c1)OCO2)C1CCN(S(=O)(=O)c2cccs2)CC1	-1%	-2.4%	-15%	-3
O=C(NC1CCCC1)C(c1ccncc1)N(C(=O)c1csnn1)C1CCCC1 (configuration not stated)	-1%	-1.4%	-28%	4
O=C(Nc1ccc(Cl)c(S(=O)(=O)N2CCOCC2)c1)[C@@H]1CCCN1C(=O)c1cccs1	.	2.1%	-5%	.
CC1(C)Cc2c(C#N)c(SCCC#N)nc(N3CCOCC3)c2CS1	-12%	-3.1%	-10%	5
O=C(CSc1nc2scc(-c3ccco3)c2c(=O)n1-c1ccccc1)NCC1CCCO1 (configuration not stated)	-3%	-2.1%	-2%	-4
CCCn1c(NC(=O)C2COc3ccccc3O2)nc2ccccc21 (configuration not stated)	-6%	-0.5%	-4%	-1
Cc1cc(NC(=O)CS(=O)(=O)c2cn(C)c3ccccc23)no1	-2%	-0.1%	-13%	5
COC(=O)c1ccc(C(=O)OC)c(NC(=S)N2CCOCC2)c1	-1%	-3.7%	-22%	8
CCOC(=O)C1=C(C)N=C2c3ccccc3C(=O)C2C1c1ccc(Br)cc1 (configuration not stated)	21%	.	.	0
COc1ccccc1C(CNC(=O)COc1ccccc1C)N1CCCC1 (configuration not stated)	.	1.0%	28%	.
OC(CN1CCCCC1)Cn1c2ccccc2c2cc(Br)ccc21 (configuration not stated)	?	-0.7%	-1%	.
CN(C)S(=O)(=O)c1ccc(Cl)c(C(=O)Nc2ccccc2[N+](=O)[O-])c1	-14%	-1.8%	3%	-17
Cc1[nH]c(-c2ccc(F)cc2)cc1C(=O)N1CCN(c2cccc(Cl)c2)CC1	17%	1.8%	8%	.
CN1CCN(CCCNC(=O)CCC(=O)N2CCOc3ccccc32)CC1	-1%	0.8%	21%	.
O=C(NC1CC1)c1cccc(NC(=O)C2CCCC2)c1	.	-1.6%	14%	.
Cc1cccc(N2C(=O)c3ccccc3C2=O)n1	1%	-2.8%	5%	.
Cc1cc(C(=O)NNC(=O)c2ccc(Cl)cc2)c2ccccc2n1	.	-0.3%	-3%	.

An excerpt (hit frequency here may not be typical).
